B2AR ag = activates human beta-2 adrenergic receptor causing internalization; P07550; Am2.2-beta2AR cells, FAP receptor internalization, flow cytometry; reference of the scale not given here; response, % (test concentration not listed); 340,000 compounds, 0.43% hits; AID 504454;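 active means response above a set limit, near 3 SD of response in nonfluorescent compounds, cut at about 42% in these data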;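 further: stock transfer was 100 nL into about 11 µL; a reference agonist was the positive control; negative values mostly stem from fluorescent compounds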
Target sequence (P07550 whole entry, looked up): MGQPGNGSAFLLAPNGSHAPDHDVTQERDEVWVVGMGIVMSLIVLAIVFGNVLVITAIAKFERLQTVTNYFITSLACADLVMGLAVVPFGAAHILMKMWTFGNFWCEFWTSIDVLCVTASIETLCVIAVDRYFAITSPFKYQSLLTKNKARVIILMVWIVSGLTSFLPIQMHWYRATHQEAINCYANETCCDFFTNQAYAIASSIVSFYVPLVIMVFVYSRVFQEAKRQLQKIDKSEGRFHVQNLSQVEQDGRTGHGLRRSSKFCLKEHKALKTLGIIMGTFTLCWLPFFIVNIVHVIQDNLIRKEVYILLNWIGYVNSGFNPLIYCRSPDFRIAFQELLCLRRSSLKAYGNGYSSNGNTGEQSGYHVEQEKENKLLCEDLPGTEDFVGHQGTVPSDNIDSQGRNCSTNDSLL
FGF22 binding = FGF22 (human) thermal shift binding. calls only at 9.99 µM. 340,000 compounds, 1.5% hits. Q9HCT0. recombinant FGF22 thermal shift, SYPRO orange fluorescence; percent of sucrose octasulfate shift, DMSO zero;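 active means melting point raised past a set limit in the mean and every replicate; three in four hits are not shown here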
Target sequence (Q9HCT0 whole entry, looked up): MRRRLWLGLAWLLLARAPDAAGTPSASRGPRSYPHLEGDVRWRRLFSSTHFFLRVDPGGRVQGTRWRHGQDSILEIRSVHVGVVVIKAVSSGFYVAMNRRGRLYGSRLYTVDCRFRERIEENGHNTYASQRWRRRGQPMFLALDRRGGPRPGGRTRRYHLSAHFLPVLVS
Ecoli growth = inhibitors of Escherichia coli growth. OD600, 23 h; hits give low values. OD600 absorbance (no concentration beside the values). 330,000 compounds, 0.21% hits. AID 1053175;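 active means OD600 absorbance below the run mean of sample wells minus 3.6 SD, in any replicate, cut at about 0.56 in these data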;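 further: stock transfer was 300 nL into about 60 µL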
HNF4A DNA FP = change in binding of human HNF4 alpha to DNA; P41235; HNF4a-FITC DNA binding, fluorescence polarization, 1 h; AID 1224865; 360,000 compounds, 0.3% hits; activity change, % at 10 µM; in the data active means activity change above about 30%, passing the limit was not always enough;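 further: controls were the assay level and a saturating level of protein; the project sought stronger binding though the title names inhibitors; some compounds called inactive have numbers as strong as hits; positive values seem to mean higher polarization but the record does not say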
Target sequence (P41235 whole entry, looked up): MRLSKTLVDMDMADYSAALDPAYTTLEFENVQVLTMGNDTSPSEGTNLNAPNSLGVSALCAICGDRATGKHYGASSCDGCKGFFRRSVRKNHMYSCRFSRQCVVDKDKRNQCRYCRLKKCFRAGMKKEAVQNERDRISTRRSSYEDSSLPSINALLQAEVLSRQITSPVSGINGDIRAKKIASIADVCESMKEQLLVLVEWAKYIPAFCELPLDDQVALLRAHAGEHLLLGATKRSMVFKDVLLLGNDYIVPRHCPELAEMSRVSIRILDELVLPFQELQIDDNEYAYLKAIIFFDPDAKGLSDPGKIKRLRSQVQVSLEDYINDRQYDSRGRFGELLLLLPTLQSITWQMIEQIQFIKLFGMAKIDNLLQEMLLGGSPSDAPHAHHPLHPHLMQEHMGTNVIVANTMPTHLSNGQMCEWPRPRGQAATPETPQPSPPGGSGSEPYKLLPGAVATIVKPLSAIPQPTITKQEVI
UCH37 inh = inhibitors of human deubiquitinating enzyme UCH37 | inhibition, % (no concentration beside the values) | purified proteasome/UCH37, Ub-AMC cleavage fluorescence | AID 588478 | Q9Y5K5 | 330,000 compounds, 0.33% hits;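 active means mean of two replicates above 20%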;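 further: 0% = compound-free wells with enzyme and 100% = wells lacking proteasome; stock transfer was 100 nL into about 20 µL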
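Material: Human UCH37 enzyme supplied as purified proteasome complex | Schedule: 30 min preincubation with enzyme, 25 min cleavage at room temperature | Detection: AMC fluorescence 355/460 nm | Measure: % inhibition of Ub-AMC cleavage fluorescence | Controls: Wells without proteasome as full block, compound-free enzyme plus substrate as uninhibited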
Numbers without * were called inactive; i = inactive; . = not tested or not shown.

no.	SMILES	B2AR ag	FGF22 binding	Ecoli growth
1	CNC(=O)ON=C(N)Cc1csc2ccc(Cl)cc12	.	.	0.645
2	CCN1C[C@]2(C)CC[C@H](OC)C34C2[C@H](OC(C)=O)[C@@]2(OCO[C@@]25C[C@H](OC)[C@H]2C[C@]3(O)C5[C@H]2OC)[C@@H]14	.	.	0.613
3	CC(C)(C)NC(=S)N=C(N)N[N+](=O)[O-]	.	.	0.67
4	COc1ccccc1CC1C(=NO)C2CCN1CC2 (stereo not drawn)	.	.	0.683
5	CCC12CN3CCN(CC(C3)C1=NNC(=O)c1ccncc1)C2	.	.	0.697
6	C[C@]12CCC3C(CCC4=CC(=NOCC(=O)NC(CCC(N)=O)C(=O)O)CC[C@@]43C)C1CCC2O (stereo partly drawn)	.	.	0.694
7	CC12CCC3C(CC=C4CC(O)CCC43C)C1C/C(=C\N1CCCC1)C2=O (stereo not drawn)	.	.	0.641
8	ON=C1/C(=C\c2ccccc2)N2CCC1CC2	.	.	0.75
9	CN(C)C(=O)ON=C(N)COc1ccc(C(C)(C)C)cc1	.	.	0.657
10	COP(=O)(OC)C(C=O)=NNc1ccc([N+](=O)[O-])cc1	.	.	0.647

no.	HNF4A DNA FP	UCH37 inh
1	.	3.1
2	.	1.0
3	.	2.8
4	.	2.8
5	.	-0.7
6	.	2.3
7	.	2.1
8	.	2.9
9	.	0.7
10	.	20.2*

Additional results.
no.	SMILES	B2AR ag	FGF22 binding	Ecoli growth
11	CC12CC[C@H]3[C@@H](CCC4(O)C[C@H](O)CCC34C=NNC(=O)c3ccccc3Cl)C1(O)CCC2C1=CC(=O)OC1 (stereo partly drawn)	.	.	0.733
12	C#C[C@@]1(O)CCC2C3CCC4=CC(=NOCC(=O)NC(C(=O)NC(CC(C)C)C(=O)O)C(C)C)CC[C@]4(C)C3CC[C@@]21C (stereo partly drawn)	.	.	0.674
13	Cc1c(C=NO)c2ccccc2n1C	.	.	0.639
14	CCC12CN3CCN(CC(C3)C1=NO)C2	.	.	0.743
15	COc1ccc(/C=C2\C(=NO)C3CCN2CC3)cc1	.	.	0.687
16	Cc1[nH]nc2ccc(-c3cncc(OC[C@@H](N)Cc4c[nH]c5ccccc45)c3)cc12	39.2	.	.
17	O=c1[nH]c(=S)n(C2CC2)c(O)c1/C=N/Nc1ccccc1	-0.1	.	.
18	CCCCCCCCCCOC(=O)CCN1CC1	-10.2	.	.
19	CC1=CC(O)C(O)C2(C)C1CC1OC(=O)C(O)C3C(C)C(O)C4(O)OCC13C42 (stereo not drawn)	-31.3	.	.
20	N#CC12c3ccccc3C(=O)N1Cc1cnnn1-c1ccccc12 (stereo not drawn)	.	i	.

no.	HNF4A DNA FP	UCH37 inh
11	.	-4.3
12	.	1.2
13	.	0.6
14	.	2.0
15	.	2.4
16	-2.1	.
17	0.9	.
18	-7.1	.
19	0.5	.
20	0.7	.

Reprinted at random: two compounds from above
no.	SMILES	B2AR ag	FGF22 binding	Ecoli growth
13	Cc1c(C=NO)c2ccccc2n1C	.	.	0.639
20	N#CC12c3ccccc3C(=O)N1Cc1cnnn1-c1ccccc12 (stereo not drawn)	.	i	.

no.	HNF4A DNA FP	UCH37 inh
13	.	0.6
20	0.7	.

New compounds follow:
no.	SMILES	B2AR ag	FGF22 binding	Ecoli growth
21	c1ccc2c(CCN3CCCCC3)c[nH]c2c1	.	i	.
22	c1cc2c(cc1N1CCCCC1)CNCc1cnnn1-2	.	i	.
23	O=C1CC2OCC=C3CN4CCC56c7ccccc7N1C5C2C3CC46O (stereo not drawn)	.	i	.
24	COc1ccc(CN2CCN(C(=O)Cc3ccccc3)CC2)cc1OC	.	i	.
25	Fc1ccccc1CN1Cc2ccccc2-n2nncc2C1	.	i	.
26	COc1ccc(C(c2nnnn2-c2ccc3c(c2)OCCO3)N2CCC3(CC2)C(=O)NCN3c2ccccc2)cc1 (stereo not drawn)	.	i	.
27	CSCCC(c1nnnn1Cc1ccccc1)N1CCC2(CC1)C(=O)NCN2c1ccccc1 (stereo not drawn)	.	i	.
28	O=C(c1cc(Cl)cc(Cl)c1)N1Cc2ccccc2-n2nncc2C1	.	i	.
29	O=C(Cc1cccs1)N1Cc2ccccc2-n2nncc2C1	.	i	.
30	O=C(NCC1=C(c2ccc3ccccc3c2)C[C@@H]2CC[C@H]1N2Cc1ccco1)c1cccnc1	.	i	.

no.	HNF4A DNA FP	UCH37 inh
21	1.3	.
22	-2.6	.
23	1.9	.
24	2.4	.
25	3.2	.
26	0.9	.
27	-1.7	.
28	-4.5	.
29	0.8	.
30	4.8	.

Continued.
no.	SMILES	B2AR ag	FGF22 binding	Ecoli growth
31	CSCCC(c1nnnn1-c1c(C)cccc1C)N1CCC(n2c(=O)[nH]c3ccccc32)CC1 (stereo not drawn)	.	i	.
32	CC(C)N1CCOC(c2ccc(O)c(O)c2)C1 (stereo not drawn)	.	i	.
33	COc1cc(C(=O)N2Cc3ccc(Br)cc3-n3nncc3C2)cc(OC)c1OC	.	i	.
34	CCOC(=O)c1cccc(C2=C(CNC(=O)c3ccncc3)[C@H]3CC[C@@H](C2)N3Cc2ccccc2)c1	.	i	.
35	O=C1c2cccc(N3CCNCC3)c2C2CCCCN12 (stereo not drawn)	.	i	.
36	COc1ccc(C(CC(C)=O)c2c(O)c3ccccc3oc2=O)cc1OC (stereo not drawn)	.	i	.
37	O=C(O)C(O)(c1ccc(Cl)cc1)C1(O)CCCC1 (stereo not drawn)	.	i	.
38	N#Cc1ccc2nc(-c3ccc(CN4CCC(n5c(=O)[nH]c6ccccc65)CC4)cc3)c(-c3ccccc3)nc2c1	.	i	.
39	S=C(NCCc1ccccc1)N1Cc2ccc(Br)cc2-n2nncc2C1	.	i	.
40	Cc1ccccc1C(=O)N1Cc2ccccc2-n2nncc2C1	.	i	.

no.	HNF4A DNA FP	UCH37 inh
31	1.5	.
32	-2.2	.
33	-1.4	.
34	0.0	.
35	2.5	.
36	6.6	.
37	-0.3	.
38	1.7	.
39	3.3	.
40	0.3	.

The list goes on:
no.	SMILES	B2AR ag	FGF22 binding	Ecoli growth
41	CN1CC2CN(Cc3ccccc3)S(=O)(=O)C2C1 (stereo not drawn)	.	i	.
42	COc1ccc(C(=O)CC(c2ccc(OC)c(OC)c2)c2c(O)c3ccccc3oc2=O)cc1OC (stereo not drawn)	.	i	.
43	O=C1NCN(c2ccccc2)C12CCN(C(c1ccccc1)c1nnnn1Cc1ccccc1)CC2 (stereo not drawn)	.	i	.
44	CCCCn1nnnc1C(c1cccs1)N1CCC2(CC1)C(=O)NCN2c1ccccc1 (stereo not drawn)	.	i	.
45	O=c1[nH]c2ccccc2n1C1CCN(Cc2ccc(-c3nc4ccc(F)cc4nc3-c3ccccc3)cc2)CC1	.	i	.
46	CNCC(=O)c1ccc(O)c(O)c1	.	i	.
47	C=C1C(=O)OC2CCN3CC=C(COC(=O)C(C)(O)C4(CO4)C1C)C23 (stereo not drawn)	.	i	.
48	c1cc2c(c(NC3=NCCCS3)c1)CCCC2	.	i	.
49	COc1ccc(CN2Cc3cc(-c4ccc(OC)cc4)ccc3-n3nncc3C2)cc1	.	i	.
50	CCOC(=O)c1cccc(C2=C(CNC(=O)c3nccs3)[C@H]3CC[C@@H](C2)N3Cc2ccccc2)c1	.	i	.

no.	HNF4A DNA FP	UCH37 inh
41	0.7	.
42	-3.5	.
43	-0.3	.
44	3.0	.
45	3.2	.
46	3.4	.
47	-0.5	.
48	-0.5	.
49	-0.4	.
50	-3.3	.

The list continues.
no.	SMILES	B2AR ag	FGF22 binding	Ecoli growth
51	Brc1ccc2c(c1)-n1nncc1CN(CC1CCCCC1)C2	.	i	.
52	Clc1cccc(N2Cc3ccccc3-n3nncc3C2)c1	.	i	.
53	C[C@@H]1CN([C@@H](C)CO)C(=O)CCCn2nncc2CO[C@@H]1CN(C)C(=O)Oc1cccc2ccccc12	.	i	.
54	C[C@@H]1CN([C@@H](C)CO)C(=O)CCCn2nncc2CO[C@@H]1CN(C)C(=O)Oc1ccc2ccccc2c1	.	i	.
55	CCCOc1ccccc1OCC(=O)N1CCN(CC(=O)N2CCOCC2)CC1	.	i	.
56	O=C(CCN1CC=C(c2ccccc2)CC1)NCc1ccccc1	.	i	.
57	COc1cccc(C(c2nnnn2-c2c(C)cccc2C)N2CCC(n3c(=O)[nH]c4ccccc43)CC2)c1OC (stereo not drawn)	.	i	.
58	O=C1NCN(c2ccccc2)C12CCN(C(c1nnnn1C1CCCCC1)C1CC1)CC2 (stereo not drawn)	.	i	.
59	O=C1c2ccccc2-n2nncc2C2c3cc(Br)ccc3CCN12 (stereo not drawn)	.	i	.
60	O=C1NCN(c2ccccc2)C12CCN(C(CCc1ccccc1)c1nnnn1C1CCCC1)CC2 (stereo not drawn)	.	i	.

no.	HNF4A DNA FP	UCH37 inh
51	-0.6	.
52	2.8	.
53	-1.6	.
54	-3.8	.
55	1.8	.
56	4.8	.
57	0.1	.
58	-0.1	.
59	2.5	.
60	-3.2	.

Whole records, quoted from the list. Screens in order: B2AR ag	FGF22 binding	Ecoli growth	HNF4A DNA FP	UCH37 inh
Brc1ccc2c(c1)-n1nncc1CN(CC1CCCCC1)C2 across the screens: .	i	.	-0.6	.
O=C1NCN(c2ccccc2)C12CCN(C(CCc1ccccc1)c1nnnn1C1CCCC1)CC2 (stereo not drawn) across the screens: .	i	.	-3.2	.
O=C(CCN1CC=C(c2ccccc2)CC1)NCc1ccccc1 across the screens: .	i	.	4.8	.
Clc1cccc(N2Cc3ccccc3-n3nncc3C2)c1 across the screens: .	i	.	2.8	.
COc1cccc(C(c2nnnn2-c2c(C)cccc2C)N2CCC(n3c(=O)[nH]c4ccccc43)CC2)c1OC (stereo not drawn) across the screens: .	i	.	0.1	.

(further entries)
no.	SMILES	B2AR ag	FGF22 binding	Ecoli growth
61	Cc1ccc(S(=O)(=O)N2Cc3cc(-c4cccc(F)c4)ccc3-n3nncc3C2)cc1	.	i	.
62	O=C(NC(=S)N1CC1)c1ccccc1	.	i	.
63	O=c1c2ccccc2[nH]c(=S)n1-c1cccc(Cl)c1	.	i	.
64	COc1ccc(-n2nnnc2C(C2CC2)N2CCC(n3c(=O)[nH]c4ccccc43)CC2)cc1 (stereo not drawn)	.	i	.
65	CCCCCN1C(=O)c2ccccc2[C@@]2(C(=O)OCC)Cc3cc(Cl)ccc3[C@@H]12	.	i	.
66	Cc1cccc2nc(-c3ccccc3)c(-c3ccc(CN4CCC(n5c(=O)[nH]c6ccccc65)CC4)cc3)nc12	.	i	.
67	O=C(c1cccs1)N1CCC(C(=O)O)(c2ccccc2)CC1	.	i	.
68	c1ccc(-c2ccc3c(c2)CNCc2cnnn2-3)cc1	.	i	.
69	COc1ccc2c(c1)C13CCN4CC5=CCOC6CC(=O)N2C1C6C5CC43 (stereo not drawn)	.	i	.
70	CCc1cc2c(cc1-c1csc(C/C(N)=N/O)n1)C(C)(C)CCC2(C)C	.	i	.

no.	HNF4A DNA FP	UCH37 inh
61	-1.2	.
62	1.2	.
63	2.3	.
64	1.3	.
65	2.3	.
66	3.5	.
67	4.4	.
68	-0.7	.
69	-0.4	.
70	-0.4	.

Next part:
no.	SMILES	B2AR ag	FGF22 binding	Ecoli growth
71	c1cc2c(cc1-c1ccc3c(c1)OCO3)CNCc1cnnn1-2	.	i	.
72	CS(=O)(=O)c1ccc(C2=C(CNC(=O)c3cccnc3)[C@H]3CC[C@@H](C2)N3Cc2ccccc2)cc1	.	i	.
73	COc1cccc(C)c1NC1=NCCO1	.	i	.
74	NC(Cc1ccc(F)cc1)c1csc(Nc2ccccn2)n1 (stereo not drawn)	.	i	.
75	CCOC(=O)CNC(=O)N1Cc2ccccc2-n2nncc2C1	.	i	.
76	COC(=O)C1=C(c2ccccc2OCc2ccccc2)C[C@@H]2CC[C@H]1N2C	.	i	.
77	CCOC(=O)[C@]12Cc3ccc(C)cc3[C@H]1N(C1CCCCC1)C(=O)c1ccccc12	.	i	.
78	CC12CCC(O)CC1CCC1C2CCC2(C)C(C(=O)CO)CCC12 (stereo not drawn)	.	i	.
79	CSCCC(c1nnnn1C1CCCCC1)N1CCC(n2c(=O)[nH]c3ccccc32)CC1 (stereo not drawn)	.	.	.

no.	HNF4A DNA FP	UCH37 inh
71	3.1	.
72	2.8	.
73	1.5	.
74	3.1	.
75	-1.7	.
76	1.1	.
77	-1.0	.
78	6.3	.
79	1.2	.

Only part of the results is shown; the hit share may differ from the screen's.
